Assay outcomes (PubChem BioAssay)
Calb biofilm kill: mixture kills Candida albicans biofilm cells. AID 1242. inhibition, % at 7.6 µM. C. albicans biofilm persisters + clotrimazole, fluorescence viability; primary screen in compound mixtures of four per well. 120,000 compounds, 0.02% hits;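 active = inhibition above 30.3% in the primary screen of four-compound pools, then above 30% when the compound was retested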;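 also: compounds exposed to preformed 24 h biofilms for 48 h; the number belongs to the whole pool; some results filed as inactive read as strong as hits; inactives centre near 12; 0% = biofilm with clotrimazole alone and 100% = kill control; retested singly at about 60 µM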
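Test system: C. albicans biofilms. Buffer or medium: RPMI/MOPS medium, pH 7.0. Timing: 48 h compound exposure at 37 °C. Technique: Alamar Blue fluorescence. Evaluation: percent inhibition of biofilm viability.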
Starred values were filed as active, the others as inactive.

SMILES	Calb biofilm kill
Cc1ccc(C2=Nc3ccc(Br)cc3C(c3ccncc3)=NN2)cc1	19
Cn1c(SCC(=O)NNC(=O)c2ccc(Cl)cc2)nnc1-c1cccnc1	2
O=C(CCN1C(=O)c2ccccc2C1=O)N1CCOCC1	15
c1ccc(-c2nnc(CN3CCN(c4ccccc4)CC3)o2)cc1	5
CN1CC2([N+](=O)[O-])CC=C(OCCO)C([N+](=O)[O-])(C1)C2 (centres undefined)	9
Cc1ccc(C)c(Nc2cc(C(=O)NCc3cccnc3)c3ccccc3n2)c1	20
Cn1c(=O)c2c(nc(N/N=C/c3cccs3)n2Cc2ccccc2)n(C)c1=O	21
COc1cc(C(C#N)N2CCC(c3ccccc3)=N2)ccc1O (centres undefined)	18
Cc1cc(-c2nn(-c3ccccc3F)cc2CN2CCCC(O)C2)c(C)s1 (centres undefined)	6
CSCCC(NC(=O)c1ccc([N+](=O)[O-])cc1Cl)C(=O)OCC(=O)NC1CCCC(C)C1C (centres undefined)	14
CC(C)OP(=O)(OC(C)C)C(Nc1ccccc1)c1cccnc1 (centres undefined)	15
CCCCN(C)C(=O)c1nc2ccccn2c1CN1CCC[C@H]1C(=O)OC	6
Cc1nc(Cl)c2c(n1)N(CC(N)=O)C(=O)CO2	10
O=C1OCCC1Sc1nc2ccccc2c(=O)n1Cc1ccc(F)cc1 (centres undefined)	7
CC(=O)c1ccc(NC(=S)N2CCN(CCN3C(=O)c4cccc5cccc(c45)C3=O)CC2)cc1	8
Cc1cc(Cl)c(OCCOCCN2CCC(C)CC2)c(Br)c1	-2
c1ccc(-c2ncnc3cc4n(c23)CCC4)cc1	15
CN(CC1CCCO1)S(=O)(=O)c1ccc(C(=O)N2CCN(c3ccccc3)CC2)cc1 (centres undefined)	18
CC1CC(C)(C)CC2(C1)NC(=O)N(CC(=O)NCCc1c[nH]c3ccccc13)C2=O (centres undefined)	10
Cn1c(SCC(=O)c2c(N)n(C)c(=O)n(C)c2=O)nnc1-c1ccccc1	13
COc1ccccc1CC(=O)NNS(=O)(=O)c1ccccc1[N+](=O)[O-]	8
COc1ccc(C(=O)c2cnc[nH]2)cc1OC	0
CC(C)CCNC(=O)C(C)N(Cc1ccc(F)cc1)C(=O)c1ccc(CN2CCOCC2)o1 (centres undefined)	13
Cc1ccc(N2NC3(CCN(C(N)=O)CC3)NC2=O)cc1	3

Ordered by SMILES length (ascending): some entries from above
SMILES	Calb biofilm kill
COc1ccc(C(=O)c2cnc[nH]2)cc1OC	0
c1ccc(-c2ncnc3cc4n(c23)CCC4)cc1	15
O=C(CCN1C(=O)c2ccccc2C1=O)N1CCOCC1	15
Cc1cc(Cl)c(OCCOCCN2CCC(C)CC2)c(Br)c1	-2
COc1cc(C(C#N)N2CCC(c3ccccc3)=N2)ccc1O (centres undefined)	18
CC(C)OP(=O)(OC(C)C)C(Nc1ccccc1)c1cccnc1 (centres undefined)	15
O=C1OCCC1Sc1nc2ccccc2c(=O)n1Cc1ccc(F)cc1 (centres undefined)	7
CCCCN(C)C(=O)c1nc2ccccn2c1CN1CCC[C@H]1C(=O)OC	6
Cc1ccc(C)c(Nc2cc(C(=O)NCc3cccnc3)c3ccccc3n2)c1	20
COc1ccccc1CC(=O)NNS(=O)(=O)c1ccccc1[N+](=O)[O-]	8
Cn1c(SCC(=O)c2c(N)n(C)c(=O)n(C)c2=O)nnc1-c1ccccc1	13
CN1CC2([N+](=O)[O-])CC=C(OCCO)C([N+](=O)[O-])(C1)C2 (centres undefined)	9
CN(CC1CCCO1)S(=O)(=O)c1ccc(C(=O)N2CCN(c3ccccc3)CC2)cc1 (centres undefined)	18
CC(C)CCNC(=O)C(C)N(Cc1ccc(F)cc1)C(=O)c1ccc(CN2CCOCC2)o1 (centres undefined)	13
CC1CC(C)(C)CC2(C1)NC(=O)N(CC(=O)NCCc1c[nH]c3ccccc13)C2=O (centres undefined)	10
CC(=O)c1ccc(NC(=S)N2CCN(CCN3C(=O)c4cccc5cccc(c45)C3=O)CC2)cc1	8
CSCCC(NC(=O)c1ccc([N+](=O)[O-])cc1Cl)C(=O)OCC(=O)NC1CCCC(C)C1C (centres undefined)	14

(cont.)
SMILES	Calb biofilm kill
CC(C)n1c(O)c(N=Nc2ccc(Cl)nn2)c2ccccc21	13
Cn1c(SCC(=O)Nc2ccccc2)nnc1-c1ccc2nonc2c1	9
Cc1ccc(CC(=O)NCCCn2ccnc2)cc1	7
Cc1ccccc1-n1c(SC2CCOC2=O)nnc1-c1ccncc1 (centres undefined)	17
CCOc1ccc(Br)cc1S(=O)(=O)Nc1ccc(NC(=O)c2ccccc2F)cc1	11
C=CCNC(=S)/N=c1/ccccn1CC	11
CCCC(=O)OCC(=O)Nc1cc([N+](=O)[O-])ccc1OC	4
CCOC(=O)C(Cc1ccccc1)C(=O)Nc1cccc2ccccc12 (centres undefined)	13
COC(=O)c1c(NC(=O)/C=C/C(=O)O)sc(C)c1-c1ccc(C(C)C)cc1	18
CC(C)n1nc(C(=O)OCC(=O)N2CC(=O)Nc3ccccc32)c2ccccc2c1=O	20
Cc1ccc(Nc2nc(N)nc(CCl)n2)cc1	20
CN1CCN(C(=O)Nc2ccccc2CC[N+](=O)[O-])CC1	4
CC(=O)c1ccc(N2CC(C)(C)C2=O)cc1	20
COc1cccc(NC(=O)COC(=O)CNS(=O)(=O)c2c(F)cccc2F)c1	-4
Cc1ccc(C2C=C(c3ccccc3)Nc3nc(N4C(=O)CCC4=O)nn32)cc1 (centres undefined)	-9
CCCCC(=O)Nc1ccc(C(=O)N(CC)c2ccccc2C)cc1	9
COC(=O)CSc1nnc(NC(=O)/C=C\c2ccc3c(c2)OCO3)s1	16
O=C(NN1C(=O)/C(=C/C=C/c2ccco2)SC1=S)c1ccncc1	19
CN(C)S(=O)(=O)c1cccc(C(=O)Nc2ccccc2[N+](=O)[O-])c1	8
S=c1[nH]nc(-c2ccccc2)n1/N=C/C=C/c1ccco1	7
COc1ccc(OC)c(/C=C2\SC(=S)N(N3CCOCC3)C2=O)c1	21
O=C(CSc1nnc(CCc2ccccc2)n1-c1ccc(Cl)cc1)c1ccccc1	12
COc1ccc(/C=C/C(=O)OCC(=O)c2ccc3c(c2)NC(=O)CO3)cc1	9
CC(=O)c1ccc(NC(=O)C2(c3ccccc3)CC2(Cl)Cl)cc1 (centres undefined)	-1
O=[N+]([O-])c1ccc(OCC(O)CNC2CCCC2)cc1 (centres undefined)	20
c1ccc2oc(Cc3ccc(Cc4nc5ccccc5o4)cc3)nc2c1	4
O=[N+]([O-])c1cc(Br)c(O)c(/C=N/Nc2nc3ccccc3s2)c1	19
CCn1cc(C(=O)O)c(=O)c2cnc(N3CCN(C(=S)NC(=O)c4ccc(Br)cc4)CC3)nc21	15
Cc1onc(-c2c(F)cccc2Cl)c1C(=O)ONC(=O)c1ccco1	13
COc1ccc(C(=O)N/N=C/c2ccc(OC)c(OS(=O)(=O)c3ccccc3)c2)cc1	14
Cc1cc(C)cc(NC(=S)NCCCO)c1	12
O=C(Nc1cccc(S(=O)(=O)N2CCCCCC2)c1)c1ccc2c(c1)OCO2	14
Cc1ccc(NNC(=O)c2c(F)cccc2Cl)cc1Cl	15
Cc1cc(CNC(=O)CC2C(=O)NCCN2Cc2ccccc2C(F)(F)F)on1 (centres undefined)	15
O=C(NC(=S)N1CCN(Cc2ccccc2)CC1)c1ccccc1	14
Cc1ccc(C2=NN(Cc3nnc(-c4ccccc4)o3)C(=O)SC2)cc1	8
Fc1cccc(-c2cc3nc(-c4ccccc4)cc(N4CCC5(CC4)OCCO5)n3n2)c1	13
C=CCn1c(=NC(=O)c2ccc(S(=O)(=O)N3CCc4ccccc4C3)cc2)sc2cc(S(N)(=O)=O)ccc21	11
COc1ccccc1NC(=O)C(=N\O)/C(C)=N/O	7
COC(=O)Cn1cc(C(=O)C(C)(C)C)c2ccccc21	26
COc1ccc(C(=O)Nc2cccc(C(=O)NCc3ccccc3)c2)cc1	13
NCCCS(=O)(=O)O	3
Cc1sc2nc(SCC(N)=O)n(C)c(=O)c2c1C	5
CC1(C)Cc2ccccc2C(NNC(=O)c2ccccc2)=N1	24
Nc1cc2nc3ccccc3oc-2cc1=O	13
O=C(O)c1cc(O)ccc1NC(=O)c1cccc2ccccc12	23
Cc1cccc(NC(=S)NNC(=O)c2ccccc2Br)c1	12
CCOC(=O)N1CCN(Cc2nc(-c3cccs3)no2)CC1	23
CCN1C(=O)c2ccc(C(=O)Nc3ncc(C)s3)cc2C1=O	16
CC(C)(C)Nc1c(-c2ccc(O)cc2)nc2ccc(Cl)cn12	13
Cc1ccc2c(CSc3nnc4ccccn34)cc(=O)oc2c1C	9
CCN1CCCC1CNS(=O)(=O)c1ccc(Cl)c(C(F)(F)F)c1 (centres undefined)	4
CCC(C)(C)NC(=O)C(c1ccc(C)cc1)N(Cc1ccco1)C(=O)Cn1nnc2ccccc21 (centres undefined)	14
CCOC(=O)c1cnc2c(c(C)nn2CC)c1NCCN1CCOCC1	10
O=C(O)CCS(=O)(=O)c1cc(Br)cc2c1N(C(=O)C1CC1)CC2	10
Cc1cccc(C)c1NC(=O)COC(=O)COc1ccc2c(C)cc(=O)oc2c1	6
COC(=O)c1sc2nc(N)c(C#N)cc2c1N	9
CCNC(=S)N(Cc1cc2cc(C)ccc2[nH]c1=O)C1CCCC1	7
Cc1cc(C)cc(NC(=O)c2c(C)nc3ccccn23)c1	12
CCOc1ccc(C(=O)NCC(=O)OCc2c(F)cccc2Cl)cc1	5

Looked up by structure from above, 2 records:
SMILES	Calb biofilm kill
CCOC(=O)N1CCN(Cc2nc(-c3cccs3)no2)CC1	23
COC(=O)c1c(NC(=O)/C=C/C(=O)O)sc(C)c1-c1ccc(C(C)C)cc1	18

Other records:
SMILES	Calb biofilm kill
CN(c1ccccc1C(=O)Nc1cccc([N+](=O)[O-])c1)S(C)(=O)=O	13
CCOC(=O)c1c(N2C(=O)Nc3ccccc3N2O)n[nH]c1-c1cccc(OC)c1	16
Cc1ccc(NC(=S)Nc2ccc(F)cc2)c(C)c1	3
CCOC(=O)c1c(/N=C/c2ccc(OC)cc2O)sc2c1CCN(C)C2	13
c1csc(CNc2ccc3c(c2)OCCO3)c1	18
CC(C)(C)NC(=S)NCc1ccco1	17
N#CCCn1nc(-c2ccc(Br)cc2)cc1Nc1ccccc1NC(=O)C(F)(F)F	9
O=C(O)CC[C@@H](C(=O)O)N1C(=O)c2ccccc2C1=O	15
Cc1ccc(CN2C3CCCC2CC(NC(=O)c2ccc(C)cc2)C3)cc1 (centres undefined)	17
COc1ccc(/C=N/NC(=O)c2cccc(NC(=O)c3ccccc3Cl)c2)cc1OC	14
COc1ccc(Nc2nc3cc(C)ccc3cc2C#N)c(OC)c1	7
Cc1ccc(/C=N/NC(=O)c2cccc(S(=O)(=O)Nc3ccccc3Cl)c2)o1	19
O=C1c2cccc3cccc(c23)C(=O)N1CC1CCN(S(=O)(=O)c2ccc(F)cc2)CC1	19
COc1ccccc1-c1nnc(SC)n1C	14
Cc1cccn2c(=O)c(C=O)c(N3CCSCC3)nc12	8
Cc1ccc(N2CC(C(=O)Nc3ccccc3C(=O)NC3CCCCC3)CC2=O)cc1 (centres undefined)	20
CN(C)S(=O)(=O)c1ccc(Cl)c(NC(=O)COC(=O)/C=C/c2ccc(S(=O)(=O)N3CCOCC3)cc2)c1	10
CCn1c(C)nc2cc(C(=O)NNS(=O)(=O)c3cc(Br)ccc3Br)ccc21	14
NC(=S)Cc1nc(-c2ccccc2)cs1	10
COCCNc1c([N+](=O)[O-])c(=O)n(-c2ccccc2)c2ccccc12	10
CSc1sccc1/C=N/NC(=O)c1ccncc1	16
O=C(COc1cccc2ccccc12)NNC(=O)CSCCO	14
COc1ccc(C(=O)NCc2nnc(SCC(=O)Nc3ccc4c(c3)OCO4)o2)cc1	11
CCOc1c(Cl)cc(CNCC(O)c2ccccc2)cc1OC (centres undefined)	7
CCc1ccc(Nc2nc(N)nc(CSc3nc4ccccc4s3)n2)cc1	23
Cc1ccc(C(=O)/C=C/N(C)C)cn1	5
COc1cc(/C=C/C(=O)OCC(=O)Nc2cc(C)c(C)cc2[N+](=O)[O-])ccc1O	13
CC1(C)NC(=O)N(Cc2cc(=O)n3ccsc3n2)C1=O	23
O=C1C2C3C=CC(CNS(=O)(=O)c4ccccc4[N+](=O)[O-])(O3)C2C(=O)N1c1ccccc1 (centres undefined)	15
O=S(=O)(NC1CCCCC1Nc1ccc(Cl)cc1)c1ccccc1 (centres undefined)	9
N#C/C(=C\c1cccnc1)C(=O)Nc1cccc2ccccc12	-9
N#Cc1nc(COc2cccc(Cl)c2)oc1NCCN1CCOCC1	16
CCc1ccc(N(C(=O)c2csnn2)C(C(=O)NC(C)(C)C)c2cccnc2)cc1 (centres undefined)	14
CC1(C)CC(=O)CC2(C1)NCC(c1ccccc1Cl)c1c2[nH]c2ccccc12 (centres undefined)	0
COC(=O)C1=C(C)N(CCc2ccccc2)C(=O)/C1=C\c1ccco1	15
Cc1ccc(OCC(=O)NCCc2nc3ccccc3[nH]2)c(C)c1	7
COc1cccc(NC(=O)c2ccc3c(SCC(=O)O)c4c(nc3c2)CCCC4)c1	-4
CC(C)CNC(=O)CSc1nc2scc(-c3ccccc3)c2c(=O)[nH]1	19
Cc1csc(C(=O)O)c1NC(=O)c1cccc([N+](=O)[O-])c1	13
CC(=O)c1cnc(Nc2ccc(C)cc2)s1	14
CCO[C@@H]1OC(C(=O)N2CCN(C)CC2)=C[C@H](C2CCCCC2)[C@H]1CCCO	21
CCOC(=O)N1CCN(CCC(=O)Nc2cc([N+](=O)[O-])ccc2OC)CC1	14
CSC1=C(C#N)C(=O)NC(c2ccc(Cl)cc2)S1 (centres undefined)	4
CCOc1ccc([N+](=O)[O-])c(N)c1	10
Cc1cccc(OCC(=O)N/N=C/c2ccccc2C(=O)O)c1	7
CCn1c(SCC(=O)OC(C)C)nnc1-c1ccccc1OC	13
Nc1c(C(=O)c2ccc(Cl)cc2)oc2ccccc12	11

A portion of the library; rates above refer to the full screens.
